YjeE inh: inhibitors of E. coli YjeE (TsaE). Potency, µM. purified YjeE, fluorescence polarisation of a bound ADP probe. P0AF67. 71,000 compounds, 0.05% hits; active = well fitted falling curve; inconclusive = weaker or top-dose-only fall, or a rising curve; inactive = flat or poorly fitted curve;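 note: top concentration of the series not given in the record; excess ADP was the control for the full effect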
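Purified YjeE (10 uM) with BODIPY Texas Red-labeled ADP probe (2 uM); compounds pin-transferred, 15 min at room temperature. Binding inhibition read as decreased fluorescence polarization; ADP titration as control.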
Bst PK mod: pyruvate kinase (B. stearothermophilus) modulation. 51,000 compounds, 1.2% hits. partly purified Bacillus stearothermophilus pyruvate kinase, luminescence ATP production; ribose 5-phosphate activator present at AC10. Potency, µM. AID 361; in the data active means potency below about 11 µM; inconclusive means mostly about 12 µM to 25 µM; inactive means weaker than that;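 the screen sought inhibitors and activators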;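 note: potency is the fitted concentration of half-maximal effect; scaled between full activation by ribose 5 phosphate and full inhibition by luteolin; about four in five hits inhibit and the cells do not say which; series up to 57 µM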
Active calls of the source: *; i = inactive; ? = inconclusive; . = not tested or not shown.

SMILES	YjeE inh	Bst PK mod
O=C(C1COc2ccccc2O1)N1CCN(Cc2ccc3c(c2)OCO3)CC1 (centres undefined)	i	.
CC(=O)N(Cc1cc2ccc(C)c(C)c2n2nnnc12)C1CCCC1	i	>57
O=C(O)C1CC(=O)N(c2ccc(F)cc2)C1 (centres undefined)	i	>57
COc1ccc2nc(NC(=O)C3CCCN3S(=O)(=O)c3ccc(C)cc3)sc2c1 (centres undefined)	i	.
N#Cc1c(N)nc2c(c1-c1cccnc1)CCCCC2	i	.
Cc1cc(C)n2cc(CSc3nnnn3-c3ccccc3)nc2n1	i	>57
CNc1nc(-c2ccccc2C)nc2ccccc12	i	.
COc1ccc(CNC(=O)Nc2ccc(C)cc2)cc1	i	>57
Cn1c(SCC(=O)Nc2cc(=O)n(C)c(=O)n2C)nnc1C12CC3CC(CC(C3)C1)C2	i	.
COc1cc(OC)cc(C(C(=O)NCc2ccccc2)N(Cc2ccco2)C(=O)c2ccno2)c1 (centres undefined)	i	>57
COc1ccccc1C1C(C(=O)c2cc3ccccc3o2)=C(O)C(=O)N1CCN1CCOCC1 (centres undefined)	i	>57
CCSc1nnc(NC(=O)C(Cc2ccccc2)n2cccc2)s1 (centres undefined)	i	.
C/C(=N\[N+](C)(C)C)c1ccc(C)c(C)c1	i	.
N#Cc1c2n(c(=S)n(-c3ccccn3)c1=O)CCCCC2	i	>57
Cc1cn(C(=O)CN2C(=O)c3ccccc3C2=O)c(C)n1	i	>57
Cc1cc(-c2cccs2)c2c(n1)sc1c(=O)[nH]c(=O)[nH]c12	i	>57
O=C(Nc1cccc(F)c1)N1CCC2(CC1)CCN(C(=O)c1csnn1)CC2	i	.
CC1CCc2nn(CC(=O)NCCCN3CCCC3=O)cc2C1 (centres undefined)	i	.
Cc1occc1-c1nnc(SCc2nnc(-c3ccc(Cl)cc3)o2)n1C	i	4.52*
Cc1c(Br)cc(C(=O)O)c(C)c1C	i	.
CCn1c(SCC(=O)c2cccs2)nnc1-c1cccs1	i	>57
Cn1cc(C(=O)OCC2CCN(CCNS(C)(=O)=O)CC2)c2ccccc21	i	.
Cn1c(CCNC(=O)c2ccco2)nc2cc(NC(=O)NC3CCCCC3)ccc21	i	>57
COCCNc1cc(C)c(C#N)c2nc3ccccc3n12	.	>25.6
COCCOC(=O)c1c(C)oc2ccc(NS(=O)(=O)c3ccccc3)cc12	i	>57
COc1ccc(-n2c(=O)c(-c3cc(F)cc(F)c3)nc3cnc(N4CCNCC4)nc32)cc1	i	.
Cc1ccccc1Nc1nnc(SCC(=O)NCc2ccco2)s1	i	>57
CC(=O)C(Sc1nc(-c2ccc(F)cc2)nc2c1c(=O)n(C)c(=O)n2C)C(C)=O	i	.
CCOc1ccc(N(CC(=O)Nc2cccc(Cl)c2)S(=O)(=O)c2c(C)noc2C)cc1	i	.
CCc1nc(-c2ccccc2O)n(-c2ccccc2)n1	i	>57
CN(C)CCCCN1CCc2c(n(C)c3ccccc23)C1=O	i	.
CCOC(=O)CNS(=O)(=O)c1ccc(S(=O)(=O)N2CCCC2)cc1	i	>57
CCN(CC)C(=O)CSc1nnc(-c2cnccn2)n1-c1ccccc1	i	>57
CCOc1ccccc1NC(=O)C1CCN(S(=O)(=O)c2ccc(OC)c(OC)c2)CC1	i	.
O=C(c1cc2ccccc2c(=O)o1)N1CCc2ccccc2C1	i	>57
O=C(O)c1ccc2c(c1)C(=O)N(c1ccc(Cl)cn1)C2=O	i	.
COc1cc(C)nc(Oc2ccc(/C=N/O)cc2)n1	i	.
CCSC1(SCC)N=C(N)C2(C#N)C(c3ccc(OC)c(OC)c3OC)C12C#N (centres undefined)	i	>57
NC[C@@H]1O[C@H](c2ccccc2)Cc2c1ccc(O)c2O	i	.
CN(C)C=NCCn1c(N2CCOCC2)nc2c1c(=O)n(C)c(=O)n2C	i	>57
Cc1cccc(N2CCN(C(=O)COc3cc(=O)n(C)c4ccccc34)CC2)c1C	i	>57
COc1ccc2nc3c(cc2c1)Cc1ccccc1-3	i	.
O=C(CSc1nc2c(c(=O)n1-c1ccc(Cl)cc1)SCC2)N1CCOCC1	i	.
COc1ccc(C2NC(C(=O)O)CS2)cc1COCC(F)(F)F (centres undefined)	i	>57
CC1(C)CC(=O)C=C(Nc2ccc(F)cc2)C1	i	>57
C/C(=N/Nc1nc(C)cc(=O)[nH]1)C(=O)O	i	.
CN1CCN(C(=O)C2CC(=O)N(c3ccc(F)c(Cl)c3)C2)CC1 (centres undefined)	i	.
COc1ccccc1C(=O)Nc1ccc2c(c1)nc1n2CCSC1	i	5.61*
O=C1c2ccccc2S(=O)(=O)N1Cc1cccc(S(=O)(=O)N2CCOCC2)c1	i	>57
CS(=O)(=O)N(CCc1ccccc1)CC(=O)NCC1CCCO1 (centres undefined)	i	>57
O=C(CSc1ccc2nnc(-c3ccncc3)n2n1)NCc1ccco1	i	.
CCC(C)NC(=O)c1ccc(CS(=O)(=O)c2ccc(OC)cc2)o1 (centres undefined)	i	.
COc1ccc(-c2nc3cnc(N(C)C)nc3n(C3CC3)c2=O)cc1	i	.
COc1ccc(C2c3c(oc4ccccc4c3=O)C(=O)N2CCCN2CCOCC2)cc1 (centres undefined)	i	>57
CN(CCC#N)C(=O)c1ccc(CNS(=O)(=O)c2ccc(F)cc2)cc1	i	>57
CN(C)C(=O)c1ccc(-c2ccc3ncnc(NC4CC4)c3c2)cc1	i	.
O=C(CCCc1c[nH]c2ccccc12)N1CCOCC1	i	>57
COc1ccc2[nH]c(=O)c(-c3noc(-c4ccc(F)cc4)n3)cc2c1	i	>57
COc1ccc(Nc2cc(=O)n(C3CCCCC3)c(=O)[nH]2)c(OC)c1	i	>57
Cc1ccc(S(=O)(=O)N2C(=O)CCC2C(=O)NCc2ccco2)cc1 (centres undefined)	i	?

(cont.)
SMILES	YjeE inh	Bst PK mod
N=C1C(c2nc(-c3ccc(Cl)cc3)cs2)=C(O)CN1CCCN1CCOCC1	i	4.46*
CCN(CC)CCOC(=O)C12CC3CC(CC(C3)C1)C2	i	>57
Cc1ccccc1C(=O)Nc1ccc(Cl)cn1	i	.
Cc1ccc(-c2nnn(CCC(=O)Nc3ccc4c(c3)OCO4)n2)cc1	i	>57
CCn1c(SCC(=O)NCc2ccco2)nnc1-c1cccs1	i	>57
CC(C)(C)[Si](OCC[C@@H]1C[C@@]1(C)[C@@H](NP(=O)(c1ccccc1)c1ccccc1)c1ccccc1)(c1ccccc1)c1ccccc1	i	.
CCOc1cc2[nH]c(=O)n(Cc3ccc(C(=O)NCCOC)cc3)c(=O)c2cc1OCC	i	.
COc1cc(OC)cc(-c2nc(-c3cc4cc(C)ccc4nc3OC)no2)c1	i	>57
COc1ccccc1C(=O)NC(CCSC)C(=O)NCC(c1ccco1)N(C)C (centres undefined)	i	>57
CCn1c2ccccc2c2nnc(SCC(=O)NCCOC)nc21	i	>57
CCN(CC)S(=O)(=O)c1ccc(Oc2cccc(C(C)=O)c2)nc1	i	>57
CC(=O)Oc1cccc(N2C(=O)C3C4C=CC(C4=C(C)C)C3C2=O)c1 (centres undefined)	i	.
CCn1c(=O)cc(OCC(=O)Nc2ccc(C)cn2)c2ccccc21	i	>57
Cc1ccc(S(=O)(=O)NCC(=O)OCN2C(=O)c3ccccc3C2=O)cc1	.	>25.6
O=C(c1csnn1)N1CCC[C@@]2(CCN(c3ccncc3)C2)C1	i	.
S=c1c2[nH]cnc2ncn1CCSc1ncnc2nc[nH]c12	i	.
O=c1cnc2ccccc2n1CC1CCCCC1	i	>57
COc1ccc(C2CC(c3ccc(Cl)cc3Cl)Nc3nc(N)nn32)cc1OC (centres undefined)	i	.
CC(=O)c1c(C)[nH]c(C(=O)CSc2nc3ccccc3c(=O)n2CCCN2CCOCC2)c1C	i	>57
O=C(C1CCCN(S(=O)(=O)c2cccc3cccnc23)C1)N1CCc2ccccc21 (centres undefined)	i	.
Cc1ccc2c(n1)sc1c(N)ncnc12	i	?
O=C1c2ccccc2C(=O)c2c(Nc3cc4c5c(ccc6c7ccc8c9c(cc(Nc%10cccc%11c%10C(=O)c%10ccccc%10C%11=O)c(c3c56)c97)-c3ccccc3C8=O)C(=O)c3ccccc3-4)cccc21	i	.
Cc1cc(NC(=O)C(C)C)ncc1NC(=O)c1cccc(F)c1	i	>57
COc1ccc(C(=O)Oc2ccc(/C=N/O)cc2)cc1	i	.
Cc1ccc(C)c2[nH]c(=O)c(CCNC(=O)c3ccc(Br)o3)cc12	i	.
COc1ccccc1-c1nn2c(C3COc4ccccc4O3)nnc2s1 (centres undefined)	i	>57
COc1ccc(N2CCN(Cc3cc(=O)oc4cc(C)c(Cl)cc34)CC2)cc1	i	>57
Cc1nc(N2CCc3ccccc32)[nH]c(=O)c1CCC(C)C	i	>57
COc1ccc(OC)c(C2N(c3cc(C)on3)C(=O)C3CCCN32)c1 (centres undefined)	i	>57
COc1ccc(C(=O)COC(=O)CN2C(=O)C3C4C=CC(C4)C3C2=O)cc1 (centres undefined)	i	>57
CCc1ccc(Cn2nnc(C(=O)Nc3cccc(C)c3)c2N)cc1	i	.
CN(C)c1ccc(-c2nn3c(-c4ccncc4)nnc3s2)cc1	i	i
Cc1ccc(-c2csc3nnc(SCC(=O)NCc4ccco4)n23)cc1	i	>57
O=C(Nc1nc2ccccc2[nH]1)c1ccccc1F	i	1.36*
Cc1nc2ccccc2n1CC(=O)NCCN1CCCC1	i	>57
Cc1nc2ncnn2c(C)c1CCC(=O)NCc1ccco1	i	>57
O=c1c2c3c(sc2nc2sc(CN4CCOCC4)cn12)CCCC3	i	>57
CCOC(=O)NC(c1ccccc1)C1CCCCC1=O (centres undefined)	i	>57
CCOC(=O)c1oc2c(CN3CCN(C)CC3)c(O)ccc2c(=O)c1-c1ccccc1OC	i	.
CCOC(=O)N1CCN(C(=O)CSc2cc(C)nc3c(-c4ccccc4OC)c(C)nn23)CC1	i	>57
COC(=O)c1ccc(C2CC(=O)Nc3cc(OC)c(OC)c(OC)c32)cc1 (centres undefined)	i	>57
O=C(NCc1ccc(F)cc1)c1cccc(S(=O)(=O)N2CCCC2)c1	i	>57
N=C1C(c2ccccc2)=C(O)CN1c1ccccc1N1CCOCC1	i	>57
Cn1c(N2CCCCC2)nc2c1c(=O)n(Cc1cccc(Br)c1)c(=O)n2C	i	>57
COc1ccc(C(=O)N2CCCC2)cc1	i	.
CC(=O)Nc1cccc(Oc2cc(C#N)c(C#N)cc2N2CCCCCC2)c1	i	>57
O=C(Nc1ccc(F)cc1)c1cccc2c1C(=O)N(Cc1ccccn1)C2	i	10.7*
O=S(=O)(N1CCCCC1)N1CCCN(S(=O)(=O)N2CCCCC2)CC1	i	>57

2 of the compounds above, with two lines to a compound.
Each structure is followed by: YjeE inh | Bst PK mod
COc1ccc(C(=O)N2CCCC2)cc1
→ i | .
N=C1C(c2ccccc2)=C(O)CN1c1ccccc1N1CCOCC1
→ i | >57

More results
SMILES	YjeE inh	Bst PK mod
COc1cccc(C(=O)Cn2c(=O)n(CC3CCCO3)c(=O)c3ccccc32)c1 (centres undefined)	i	>57
CCCN1C2CCCC1CC(NC(=O)c1ccc(F)cc1)C2 (centres undefined)	i	>57
Cc1cc(C(=O)Nc2c(C)nn(Cc3ccccc3Cl)c2C)no1	i	>57
COc1ccc(Cl)cc1C(=O)Nc1nnn(C)n1	i	>57
CN1CCN(CCCBr)CC1	i	.
CC(NC(=O)c1ccc(Cl)cc1)C(=O)N1CCCCC1 (centres undefined)	i	.
Cc1cc(Br)ccc1NC(=O)C1CCCO1 (centres undefined)	i	>57
O=C(c1cc(-c2ccccc2O)on1)N1CCc2ccccc2C1	i	.
CCN(C(=O)c1c(-c2ccccc2)noc1C)c1ccccc1	i	>57
CCCn1c(SCC(=O)Nc2nnc(C)s2)nnc1-c1ccoc1C	i	>57
O=C1CNC(=O)N1Cc1ccc(Br)cc1	i	>57
O=C(c1ccc(CN2CCOCC2)cc1)N1CCC(Cc2ccccc2)CC1	i	.

Exported bar-delimited: part of the list above.
smiles | YjeE inh | Bst PK mod
CCN(C(=O)c1c(-c2ccccc2)noc1C)c1ccccc1 | i | >57
Cc1cc(Br)ccc1NC(=O)C1CCCO1 (centres undefined) | i | >57
CC(NC(=O)c1ccc(Cl)cc1)C(=O)N1CCCCC1 (centres undefined) | i | .
CCCN1C2CCCC1CC(NC(=O)c1ccc(F)cc1)C2 (centres undefined) | i | >57
CCCn1c(SCC(=O)Nc2nnc(C)s2)nnc1-c1ccoc1C | i | >57

Next part
SMILES	YjeE inh	Bst PK mod
Cc1nn(-c2ccccc2)c(N2CCCCC2)c1/C=N/O	i	.
S=c1nc(C2CC2)[nH]c2ccccc12	i	>57
CC(C)NC(=O)NC(=O)COc1cccc2c1OC(C)(C)C2	i	>57
CCCC(=O)NCCc1nc2ccccc2n1CCC	i	.
Cc1cc(NC(=O)CCCC(=O)O)nc(C)n1	i	>57
CCOC(=O)C(CO)(NC(C)=O)C(=O)OCC	i	>57
c1cn(CCCNC2=NCCCCC2)cn1	i	>57
NC(=O)CSc1oc(-c2cccs2)nc1S(=O)(=O)c1ccccc1	i	>11.4
Cc1ccc2[nH]c(=O)c(CN(Cc3nnnn3Cc3ccccc3)C3CCCC3)cc2c1	i	>11.4

Single records (already shown). Order of values: YjeE inh | Bst PK mod
`S=c1nc(C2CC2)[nH]c2ccccc12` as listed: i | >57
`Cc1nn(-c2ccccc2)c(N2CCCCC2)c1/C=N/O` as listed: i | .
`Cc1ccc2[nH]c(=O)c(CN(Cc3nnnn3Cc3ccccc3)C3CCCC3)cc2c1` as listed: i | >11.4
`c1cn(CCCNC2=NCCCCC2)cn1` as listed: i | >57
`CCCC(=O)NCCc1nc2ccccc2n1CCC` as listed: i | .

A portion of the library; count on the stated rates, not on these rows.
